# Bioassay records as filed in PubChem.
# A647 autofl – compound autofluorescence in A647 spectral region | Compound fluorescence, A647 channel (570/671 nm), Tris buffer | max dye-equivalent concentration, M | 59,000 tested, under 10 active; active means above 1 µM dye equivalent; inconclusive means 0.1 to 1 µM; inactive means 0.1 µM or less;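 note: values scaled relative to a standard on each plate; highest value over a series up to 38 µM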
#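 Fluorescence read (570 nm ex, 671 nm em) after 15 min RT incubation of compounds in 100 mM Tris buffer, pH 8.0; values expressed as dye-equivalent concentration against a six-point A647 standard series on each plate.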
# TSHR agonist – agonists of human thyroid stimulating hormone receptor; Potency, µM (highest dose often 57.1 µM), for the others: at the highest dose activation, usual class: activators; AID 926; 0.48% of 73,000 active; HEK293-CNG-TSHR cells (CNG channel as cAMP sensor), membrane potential dye, cAMP; active = well fitted activation curve of enough size with the parental cells flat; inconclusive = any curve in the parental cells; inactive = parental cells flat and receptor cells flat or falling; note: potency is the fitted concentration of half-maximal effect; % of control where 0% means no effect; weak receptor curves with flat parental cells got no call and are not listed
# Target sequence (P16473 whole entry, looked up): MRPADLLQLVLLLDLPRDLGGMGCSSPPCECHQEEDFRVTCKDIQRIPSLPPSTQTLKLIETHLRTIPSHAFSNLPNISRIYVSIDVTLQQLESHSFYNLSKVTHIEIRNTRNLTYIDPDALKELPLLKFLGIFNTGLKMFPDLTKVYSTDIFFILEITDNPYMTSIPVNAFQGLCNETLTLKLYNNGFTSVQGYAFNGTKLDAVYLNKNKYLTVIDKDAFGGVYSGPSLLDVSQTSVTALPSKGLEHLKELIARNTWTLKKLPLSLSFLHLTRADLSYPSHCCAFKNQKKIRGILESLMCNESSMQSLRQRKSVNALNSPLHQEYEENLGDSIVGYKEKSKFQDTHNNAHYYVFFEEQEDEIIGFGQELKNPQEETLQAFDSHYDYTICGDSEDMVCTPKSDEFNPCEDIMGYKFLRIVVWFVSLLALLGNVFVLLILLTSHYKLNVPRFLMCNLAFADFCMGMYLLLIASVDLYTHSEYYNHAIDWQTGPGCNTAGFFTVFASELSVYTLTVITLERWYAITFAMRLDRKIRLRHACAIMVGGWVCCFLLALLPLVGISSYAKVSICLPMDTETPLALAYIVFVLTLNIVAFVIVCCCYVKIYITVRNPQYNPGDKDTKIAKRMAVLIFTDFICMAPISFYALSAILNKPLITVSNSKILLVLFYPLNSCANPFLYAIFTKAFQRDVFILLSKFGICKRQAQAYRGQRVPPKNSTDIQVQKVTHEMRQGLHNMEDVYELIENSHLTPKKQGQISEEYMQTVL
#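 cAMP rise detected as CNG-channel membrane depolarization by fluorescent dye (emission 590 nm), 30 min after compound, following 60 min dye loading containing 100 uM RO 20-1724 at room temperature. Cells: TSHR/CNG HEK 293, with parental CNG HEK 293 as control.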
# A488 fluor – compound autofluorescence in A488 spectral region. compound autofluorescence, A488 spectral region, dye equivalency; active compounds read high. max dye equivalency, M. 0.1% of 59,000 active; active = above 10 nM dye equivalent; inconclusive = 1 to 10 nM; inactive = 1 nM or less; about half of its hits are not listed in these tables;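 note: highest value over a series up to 38 µM; compound alone in buffer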
#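 Compound autofluorescence was read in 100 mM Tris pH 8.0 after 15 min at room temperature, ex 480 nm/em 540 nm. Intensities were converted to A488 dye-equivalent concentration using an on-plate six-point A488 standard curve.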
# AID923 – qHTS Assay for Allosteric/Competitive Inhibitors of Caspase-1: Spectroscopic Profiling in AFC Spectral Region; 1.1% of 75,000 active; AID 923, 2007; Potency, µM (highest dose often 57.5 µM), for inactives: at the top dose fluorescence increase, most hits filed as activators; compound fluorescence, AFC spectral region (405/520 nm); almost no hit is shown here; active = well fitted activation curve with a large enough effect; inconclusive = small, poorly fitted or top-dose-only effect;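 note: potency is the fitted concentration of half-maximal effect; 0% is about no effect; scaled to a free AFC standard on each plate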
#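 Compound autofluorescence profiled at 405 nm ex/520 nm em during kinetic caspase 1 run (50 nM enzyme, 5 uM Ac-WEHD-AFC, HEPES pH 7.5, 10 mM DTT). Titration up to 57 uM; baseline from regression intercept, normalized to AFC standard curve.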
# Resorufin fluor – resorufin region autofluorescence. Compound fluorescence, resorufin region 547/598 nm, buffer; active compounds read high. max dye-equivalent concentration, M. 0.04% of 59,000 active. AID 588; active = above 10 nM dye equivalent; inconclusive = 1 to 10 nM; inactive = 1 nM or less; a few of its hits are not listed in these tables; note: highest value over a series up to 38 µM
#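 Intrinsic fluorescence profiled in the resorufin window (ex 547 nm, em 598 nm) after 15 min at room temperature in pH 8.0 Tris buffer (100 mM); responses normalized against a six-point resorufin standard series as dye-equivalent concentration.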
# * = called active by the depositor; i = inactive; ? = inconclusive; . = no result given; [ ] = remark or other dose. An excerpt. The share of hits here may be higher or lower than overall.
SMILES,A647 autofl,TSHR agonist,A488 fluor,AID923,Resorufin fluor
Cc1ccc(Cn2nnc3c(=O)[nH]c(C4CCCN(C(=O)Nc5ccc(F)cc5)C4)nc32)cc1 (stereo not drawn),1e-09,?,i,0.1%,i
COC(=O)CC[C@@H](C)[C@H]1CC[C@H]2[C@H]3CC[C@H]4C[C@@H]5CC[C@@]4(C)C3(O5)[C@@H](Br)[C@@H](Br)[C@@]12C,1e-09,-1%[11.4 µM],i,-1.7%[11.5 µM],i
Cn1c(CSc2nc3ccccc3s2)nc2ccccc21,2.1e-08,?,i,1.5%,i
Nc1nc(N2C(=O)C3CC=CCC3C2=O)nn1-c1ccccc1 (stereo not drawn),1e-09,4%,i,-0.6%,i
Cc1ccc(N2CCN(CCC(=O)O)CC2)cc1,3.3e-08,4%[11.4 µM],i,-1.8%[11.5 µM],i
CCn1c(NCc2ccccn2)nc2c1c(=O)n(C)c(=O)n2C,1e-08,17%,i,-0.1%,i
O=C(NC1CCCCC1)N(Cc1ccccc1)Cc1ccco1,.,?,.,-2.5%,.
CCCCN(CCCC)S(=O)(=O)c1ccc2oc(C(=O)N3CCOCC3)c(C)c2c1,3.5e-08,.,i,-1.8%,i
O=C(NCC(c1cccs1)N1CCOCC1)c1cc2ccccc2o1 (stereo not drawn),2.9e-09,?,i,-2.1%,i
CCSc1nnc(NC(=O)CSc2nc3c(c(=O)n2CC)SC(C)C3)s1 (stereo not drawn),1.6e-08,17%,i,-0.5%,i
Cc1c(OCc2ccccc2)c(=O)ccn1Cc1ccccc1,3.8e-09,.,i,.,i
COc1cc(NS(=O)(=O)c2ccc(NC(=O)c3ccco3)cc2)nc(OC)n1,2.1e-09,1%,i,-0.6%,i
COC(=O)c1ccc(Cl)c(NC(C)=O)c1,2.7e-08,-15%,i,-1.3%,i
Cc1ccc(S(=O)(=O)NC(CC(=O)O)c2ccccc2)cc1 (stereo not drawn),1e-09,9%,i,3.1%,i
O=C(CN(Cc1cccs1)C(=O)CNC(=O)c1ccco1)NC1CCCCC1,3.8e-09,1%,i,-2.2%,i
O=C1c2ccccc2C(=O)N1c1nc(-c2cccs2)cs1,1e-09,-16%,i,2.9%,i
O=C(CCSc1ccccc1)Nc1ccc(S(=O)(=O)N2CCOCC2)cc1,1e-09,-2%,i,-3.2%,i
O=C(CSc1nnc(CNC(=O)c2ccco2)o1)c1ccccc1,3.1e-08,-1%[11.4 µM],i,0.8%,i
COC(=O)c1ccc(C2/C(=C(/O)c3ccc(OC)cc3)C(=O)C(=O)N2c2cc(C)on2)cc1 (stereo not drawn),2.7e-09,.,i,.,i
O=C(C1=C(O)C(=O)N(Cc2ccccc2)C1c1ccncc1)c1ccco1 (stereo not drawn),4e-08,-1%,i,-0.1%,i
O=C(NC1CCCC1)C1c2ccccc2C(=O)N1C1CCCCC1 (stereo not drawn),4.2e-08,17%,i,-1.0%,i
CC(=O)N1CCN(S(=O)(=O)c2ccc(C)cc2)C1C(C)C (stereo not drawn),4.3e-08,0%,i,-0.5%,i
CC(C)CCN(C)C1CCN(C(=O)Nc2c(F)cccc2F)CC1,.,10%,.,-2.2%,.
Cn1c(=O)c2cc(S(=O)(=O)NC(Cc3ccccc3)C(=O)NCc3ccco3)ccc2n(C)c1=O (stereo not drawn),.,-2%,.,0.4%,.
CCCc1[nH]nc2c1C(c1ccc(OC)c(CSC3=NCCS3)c1)C(C#N)=C(N)O2 (stereo not drawn),1e-09,.,i,0.4%,i

# Remaining list, next part:
SMILES,A647 autofl,TSHR agonist,A488 fluor,AID923,Resorufin fluor
CCOc1ccc(OCC)c(NC(=O)CSc2nc3c(c(=O)n(C)c(=O)n3C)n2C)c1,8.3e-09,-4%,i,1.3%,i
COc1ccc(C(=O)Nn2c(SCC(=O)NCC3CCCO3)nc3ccccc3c2=O)cc1 (stereo not drawn),3.1e-08,18%,i,-1.7%,i
COc1ccc(NC(=O)N2CCN(S(C)(=O)=O)CC2)cc1OC,6.7e-09,3%,i,-1.4%,i
Cn1nc(-c2ccc(OCC(=O)NCC3CCCO3)cc2)c2ccccc2c1=O (stereo not drawn),1.8e-09,24%,i,-1.0%,i
O=C(NCc1ccco1)c1cnn2c1NC(c1ccccc1)CC2C(F)(F)F (stereo not drawn),5.2e-08,.,i,.,i
CCOc1ccc2nc(NC(=O)Nc3cccs3)sc2c1,.,-21%,.,0.1%,.
O=C(Nc1cccc(Cl)c1N1CCCC1)c1ccc(Br)o1,1.5e-08,?,i,1.4%,i
O=C(CSc1nnc(-c2cccs2)n1CC1CCCO1)c1cc2ccccc2o1 (stereo not drawn),1.8e-09,?,i,3.2%,i
Cc1ccc2oc(=O)c3cc(C(=O)NCc4ccco4)sc3c2c1,.,?,.,4.0%,.
Cc1c(S(=O)(=O)Nc2cccc(Cl)c2)c(=O)n(C)c(=O)n1C,.,7%,.,-3.3%,.
Cc1cccc(CS(=O)(=O)Cc2ccc(C(=O)NCC3CCCO3)o2)c1 (stereo not drawn),3.6e-08,-3%,i,0.6%,i
CSc1nnc2n(-c3ccccc3)c(=O)c3c4c(sc3n12)CCC4,1.2e-08,4%,i,-0.2%,i
COCCSc1nnc(NC(=O)C2CCCCC2)s1,2.3e-08,-10%,i,-1.6%,i
Cn1nnnc1SCC(=O)Nc1ccccc1N1CCCCC1,1.5e-08,8%,i,0.3%,i
O=S(=O)(c1ccc(-c2nnc(SCc3nnc(-c4ccccc4)o3)o2)cc1)N1CCCC1,1e-09,?,i,1.3%,i
CN(Cc1cccs1)c1ncnc2sccc12,1.2e-08,?,i,0.4%,i
Nc1ccc(Cc2ccc(N)c(C(=O)O)c2)cc1C(=O)O,1e-09,-5%[11.4 µM],i,-0.3%[11.5 µM],i
CCOC(=O)c1[nH]c(CSc2nnc(-c3ccncc3)n2CCOC)c(C(=O)OCC)c1C,1e-09,1%,i,0.2%,i
CN1C(=O)C2C=CC1C1C(=O)N(c3ccccc3)C(=O)C21 (stereo not drawn),.,-3%,.,-0.6%,.
N#Cc1cnc2sc3ccccc3n2c1=N,.,-10%,.,4.5%,.
Cc1ccc(-n2nc(-c3ccco3)cc2C(=O)NCc2cccnc2)cc1,1.8e-08,19%,i,-0.1%,i
CCC(C)(C)n1nnnc1C(c1ccc(OC)c(OC)c1)N1CCN(c2cccc(OC)c2)CC1 (stereo not drawn),1e-09,?,i,-1.7%,i
Cc1nn(-c2ccccc2)c(C)c1C(=O)OCC(=O)N1CCN(S(=O)(=O)c2ccccc2)CC1,1e-09,-4%,i,-0.7%,i
CCCC(=O)Nc1nnc(Cc2ccccc2)s1,.,-7%,.,-0.8%,.
COc1ccc(NC(=O)CSc2nnc(Cc3cccn3C)n2CCc2ccccc2)c(OC)c1,3.6e-09,?,i,1.8%,i

# 4 entries picked at random from the list so far:
SMILES,A647 autofl,TSHR agonist,A488 fluor,AID923,Resorufin fluor
Nc1nc(N2C(=O)C3CC=CCC3C2=O)nn1-c1ccccc1 (stereo not drawn),1e-09,4%,i,-0.6%,i
Cc1ccc(S(=O)(=O)NC(CC(=O)O)c2ccccc2)cc1 (stereo not drawn),1e-09,9%,i,3.1%,i
CN(Cc1cccs1)c1ncnc2sccc12,1.2e-08,?,i,0.4%,i
COc1cc(NS(=O)(=O)c2ccc(NC(=O)c3ccco3)cc2)nc(OC)n1,2.1e-09,1%,i,-0.6%,i

# (listing goes on)
SMILES,A647 autofl,TSHR agonist,A488 fluor,AID923,Resorufin fluor
Cc1ccc(Cn2nnc3c(=O)n(Cc4ccccc4C)cnc32)cc1,.,22%,.,-2.7%,.
CC1=NOC2(C1)N(C)c1ccccc1C2(C)C (stereo not drawn),1.7e-08,1%,i,-0.4%,i
O=C(NCc1ccccn1)c1ccc(Cn2cc(Br)cn2)o1,8.5e-09,4%,i,1.7%,i
Cc1ccccc1-n1nc2c(c1NC(=O)c1c(-c3ccccc3Cl)noc1C)CSC2,4.2e-09,2%[11.4 µM],i,-0.1%,i
O=C(NCCCNCCCNC(=O)c1ccccn1)c1ccccn1,1e-09,3%,i,-1.5%,i
COc1cc2c(cc1OC)CN(CC(=O)Nc1cccc(C)c1)CC2,7.3e-09,.,i,0.5%,i
COc1ccc(OC)c(Nc2nc(-c3ccc(O)c(O)c3)cs2)c1,4.6e-08,-34%[inhibitor],i,2.2%,i
COCCCNC(=O)COc1cc(C)c(Cl)c(C)c1,.,9%,.,-0.7%,.
COc1ccccc1CNC(=O)CN(c1ccc(C)cc1)S(=O)(=O)c1c(C)nn(C)c1C,1.4e-08,-2%,i,-0.2%,i
CCOc1cc(C)c(C(C)C)cc1S(=O)(=O)N1CCN(C)CC1,1e-09,8%,i,0.7%,i
CCn1c(=O)n(CC(=O)Nc2cccc(OC)c2)c(=O)c2ccccc21,1e-09,-1%[11.4 µM],i,-1.5%,i
CCc1nnc(NC(=O)CSc2nc3c(c(=O)n2C)SC(C)C3)s1 (stereo not drawn),.,2%,.,1.5%,.
O=C(CCN1C(=O)C2CC=C(Cl)CC2C1=O)NC1CCCCC1 (stereo not drawn),1e-09,7%[11.4 µM],i,1.4%,i
Cc1ccc(C)c(CSc2nnc(-c3cccnc3)n2N)c1,3.3e-09,24%,i,-1.6%,i
CCC[C@@H]1C[C@@]1(CCC)[C@@H](NC(=O)Oc1ccccc1)c1ccc(C(=O)OC)cc1,.,12%,.,0.7%,.
CC1CN(CCc2ccccc2)c2nc3c(c(=O)[nH]c(=O)n3C)n2C1 (stereo not drawn),3.6e-08,?,i,1.0%,i
CC(C)(C)c1cc2c(O)c(c1)Cc1cc(C(C)(C)C)cc(c1O)Cc1cc(C(C)(C)C)cc(c1O)Cc1cc(C(C)(C)C)cc(c1O)Cc1cc(C(C)(C)C)cc(c1O)Cc1cc(C(C)(C)C)cc(c1O)Cc1cc(C(C)(C)C)cc(c1O)Cc1cc(C(C)(C)C)cc(c1O)C2,3.5e-09,5%[11.4 µM],i,-1.3%[11.5 µM],i
Cc1oc(-c2cccc(Cl)c2)nc1CN1CCC(C(=O)NCc2ccco2)CC1,4.1e-08,11%,i,2.8%,i
CCOC(=O)CC(=O)CSc1nc2sc(C)cc2c(=O)n1Cc1ccco1,1e-09,.,i,1.8%,i
O=S(=O)(c1cccc(-c2nnco2)c1)N1CCCC1,1e-09,-2%,i,0.0%,i
CCCNS(=O)(=O)c1cc(Br)cc2c1N(C(=O)CC)CC2,3.2e-09,10%[11.4 µM],i,-0.8%,i
O=C(c1ccco1)N1CCN(S(=O)(=O)c2ccc(C3CCCCC3)cc2)CC1,5.8e-09,?,i,-0.7%,i
Cc1nc2ccccc2c2oc(C(=O)N3CCC(N4CCCCC4)CC3)cc12,.,2%,.,-0.1%,.
O=C1CCCc2sc3c(c2N1)CCCCC3,.,8%,.,0.3%,.
CC(=O)OCC1OC(c2ccc3c(c2)OCO3)C=CC1OC(C)=O (stereo not drawn),.,0%[11.4 µM],.,-2.8%[11.5 µM],.

# Next part:
SMILES,A647 autofl,TSHR agonist,A488 fluor,AID923,Resorufin fluor
Cn1c(=Nc2ccc(N3CCOCC3)cc2)ccc2ccccc21,3e-09,-3%,i,-0.1%,i
O=C(NCC1OCCc2ccccc21)c1ccco1 (stereo not drawn),.,0%,.,2.4%,.
Cn1c(=O)c2c(ncn2CC(=O)N2CCc3ccccc3C2)n(C)c1=O,.,-6%,.,-0.1%,.
COc1cccc(-c2cc(C(F)(F)F)nc(N3CCC(C)CC3)n2)c1,2e-08,-2%,i,3.6%,i
CN(C)S(=O)(=O)c1ccc(S(=O)(=O)N2CCN(CCC#N)CC2)cc1,.,-3%,.,-0.3%,.
CCOC(=O)N1CCN(/C=C(\C#N)c2nc3ccccc3s2)CC1,1.9e-08,.,i,.,i

# Part of the list above, showing only A647 autofl, TSHR agonist and Resorufin fluor.
structure,A647 autofl,TSHR agonist,Resorufin fluor
Cn1c(=Nc2ccc(N3CCOCC3)cc2)ccc2ccccc21,3e-09,-3%,i
O=C(NCC1OCCc2ccccc21)c1ccco1 (stereo not drawn),.,0%,.
